Source: PubChem BioAssay
ClpP mod: qHTS Assay for Activators of ClpP; ATP-dependent Clp protease proteolytic subunit (Bacillus subtilis (strain 168)), P80244; purified B. subtilis ClpP, FRET peptide cleavage, 20 min; Potency, µM (highest dose often 57.5 µM), inactives show at the highest dose activity change, negative = active; hit rate 1.9% among 340,000; active = well fitted falling curve with a large enough effect; inconclusive = small, poorly fitted or top-dose-only effect; inactive = no such curve, though single readings can be large or run the other way; note: potency is the fitted concentration of half-maximal effect; the source files actives as falling curves though it sought activators and does not explain the sign; nearly all actives have a fitted effect of over 65% in size; many hits overshoot -100%
Target sequence (P80244 whole entry, looked up): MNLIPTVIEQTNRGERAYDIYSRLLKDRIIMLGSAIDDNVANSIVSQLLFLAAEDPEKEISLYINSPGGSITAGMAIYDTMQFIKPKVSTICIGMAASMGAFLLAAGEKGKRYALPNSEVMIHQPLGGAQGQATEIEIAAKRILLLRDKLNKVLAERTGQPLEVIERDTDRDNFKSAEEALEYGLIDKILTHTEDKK
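ClpP 10 microg/mL final, pH 8 Tris/KCl buffer with BSA, glycerol, Tween-20; compound pinned in; FRET-FV substrate; RT 20 min; Ex320/Em430; ΔFRET vs ADEP 5.8 microM, DMSO, no enzyme.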
D2 potentiator: potentiates the human D2 dopamine receptor allosterically; AID 624464; hit rate 0.23% among 360,000; P14416; DiscoveRx D2 beta-arrestin cells, luminescence, 90 min; 100% = 57 uM dopamine signal; potentiation, % (no concentration beside the values); active = potentiation of 50% or more; inconclusive = 30% to 50%; inactive = 30% or less;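 note: compound concentration not given in the record; tested on top of an EC20 dose of dopamine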
Target sequence (P14416 whole entry, looked up): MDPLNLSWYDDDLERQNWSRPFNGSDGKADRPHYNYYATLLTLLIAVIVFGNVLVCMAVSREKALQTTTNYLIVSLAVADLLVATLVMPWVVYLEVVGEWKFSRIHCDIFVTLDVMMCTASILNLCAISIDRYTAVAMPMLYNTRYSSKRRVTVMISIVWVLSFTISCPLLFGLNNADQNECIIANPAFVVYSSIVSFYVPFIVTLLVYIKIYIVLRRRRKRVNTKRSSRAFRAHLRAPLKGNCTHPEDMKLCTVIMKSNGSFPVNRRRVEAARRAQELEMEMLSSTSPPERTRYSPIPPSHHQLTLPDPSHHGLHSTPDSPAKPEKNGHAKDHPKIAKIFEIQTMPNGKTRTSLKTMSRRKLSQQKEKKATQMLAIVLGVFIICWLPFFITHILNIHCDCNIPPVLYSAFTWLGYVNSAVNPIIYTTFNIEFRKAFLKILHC
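PathHunter D2 cells, attached overnight at 37 deg C, received compound in DMSO plus dopamine at EC20 (50 nM final) for 90 min at 37 deg C. Beta-arrestin recruitment was read as luminescence after 1 h with detection reagent at ambient temperature.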
* marks the source's active call; other numbers are inactive results. This is a subset; the hit share may differ from the screen's.

The first 2 records (preview)
Results for CCC(=O)N1CCC(C)(C(=O)Nc2ccc3c(c2)OCCO3)C1 (centres undefined) ?
ClpP mod: -1.9%; D2 potentiator: -6

Results for OC(c1cccc(Cl)c1)c1nc(-c2cc3ccccc3o2)cs1 (centres undefined) ?
ClpP mod: -2.6%; D2 potentiator: -22

Main list, previewed entries included:
Results for CCC(=O)N1CCC(C)(C(=O)Nc2ccc3c(c2)OCCO3)C1 (centres undefined) ?
ClpP mod: -1.9%; D2 potentiator: -6

Results for OC(c1cccc(Cl)c1)c1nc(-c2cc3ccccc3o2)cs1 (centres undefined) ?
ClpP mod: -2.6%; D2 potentiator: -22

How did Cc1ccc(Sc2ccc(NC(=O)c3ccc(F)cc3)cc2C#N)cc1 do in these assays?
ClpP mod: 4.2%; D2 potentiator: 0

What do the screens show for `CCCc1nc2ccc(C(=O)OC)cn2c1Cc1ccccc1`?
ClpP mod: -16%; D2 potentiator: -11

Results for CC1(C(=O)NS(=O)(=O)Cc2cccc(Cl)c2)CCN1C(=O)Cc1ccc(-c2ccccc2)cc1 (centres undefined) ?
ClpP mod: -1.4%; D2 potentiator: -5

What do the screens show for `CCCCN(C=O)c1c(CC)nc2c(OCC(=O)C(C)(C)C)cccn12`?
ClpP mod: -6.6%; D2 potentiator: -4

What do the screens show for `Cc1ccc(CNC(=S)Nc2ccc3c(c2)c(=O)n(C)n3Cc2cccc(C(F)(F)F)c2)cc1`?
ClpP mod: 4.5%; D2 potentiator: 9

What do the screens show for `Cc1ccc(F)c(S(=O)(=O)NC(=O)C2(C)CCN2C(=O)Cc2ccccc2)c1` (centres undefined)?
ClpP mod: -1.5%; D2 potentiator: -8

How did COc1ccc(CCCNC(=O)C2Cc3c(-c4cccc(NC(C)=O)c4)ccnc3O2)cc1 (centres undefined) do in these assays?
ClpP mod: -3.9%; D2 potentiator: 10

Results for OCCc1ccc(NCCc2ccco2)cc1 ?
ClpP mod: -2.6%; D2 potentiator: -1

Results for COc1cc(CNc2ncnc3c2ncn3[C@H]2CN(Cc3cc(OC)c(OC)c(OC)c3)C[C@@H](CO)O2)cc(OC)c1OC ?
ClpP mod: -6.9%; D2 potentiator: -6

How did O=[N+]([O-])c1ccc(-c2cn(-c3ccc(Cl)cc3)cn2)cc1 do in these assays?
ClpP mod: 0.4%; D2 potentiator: 2

How did COc1cccc(C(NC(C)=O)c2nc(-c3ccccc3OC)cs2)c1 (centres undefined) do in these assays?
ClpP mod: -2.9%; D2 potentiator: -4

Results for CC1(C(=O)NS(=O)(=O)c2ccccc2)CCN1C(=O)Cc1ccc(Cl)cc1Cl (centres undefined) ?
ClpP mod: -0.2%; D2 potentiator: -9

Results for Cc1onc(-c2c(F)cccc2Cl)c1C(=O)Nc1cc2cc([N+](=O)[O-])ccc2oc1=O ?
ClpP mod: -0.3%; D2 potentiator: -6

Results for COc1cccc(CC(=O)Nc2ccc3c(c2)c(=O)n(C)n3-c2ccc(C(C)(C)C)cc2)c1 ?
ClpP mod: 4.1%; D2 potentiator: -6

Results for CN(C)c1ccc(NC(=O)Nc2nnc([C@H]3C[C@H](O)[C@@H](CO)O3)s2)cc1 ?
ClpP mod: -2.8%; D2 potentiator: 0

How did CCOC(=O)C1CCCN(C(=O)c2cc(-c3cccs3)oc2C)CC1 (centres undefined) do in these assays?
ClpP mod: -7.2%; D2 potentiator: -11

What do the screens show for `O=c1ccc2cccc([N+](=O)[O-])c2[nH]1`?
ClpP mod: -0.4%; D2 potentiator: 0

Results for CC[C@@H](C)[C@@H](CO)NC(=O)[C@H]1O[C@@H](n2cnc3c(N)ncnc32)[C@H](O)[C@@H]1O ?
ClpP mod: 0.2%; D2 potentiator: -4

What do the screens show for `COc1ccc(C=C(C(=O)c2ccccc2)C(=O)c2ccccc2)cc1`?
ClpP mod: 6.2%; D2 potentiator: -7

What do the screens show for `COc1ccc(C(O)c2ncc(-c3ccc(Cl)cc3)[nH]2)cc1` (centres undefined)?
ClpP mod: -0.5%; D2 potentiator: -2

What do the screens show for `O=C(Nc1ccccc1)c1cc(C2COCCN2C(=O)c2ccccn2)on1` (centres undefined)?
ClpP mod: -3.2%; D2 potentiator: -2

How did COc1cc(-c2cc3nc(NCc4cccc(Cl)c4)ccn3n2)cc(OC)c1OC do in these assays?
ClpP mod: 4.7%; D2 potentiator: 2

How did CS(=O)(=O)Nc1ccc(-c2cccc3nccn23)cc1 do in these assays?
ClpP mod: 5.0%; D2 potentiator: 0

How did Nc1nc2ccccc2n1S(=O)(=O)c1ccccc1 do in these assays?
ClpP mod: -4.2%; D2 potentiator: -8

What do the screens show for `COc1cccc(CNc2nc3cc(-c4cccc(Cl)c4)sc3c(=O)n2C)c1OC`?
ClpP mod: inconclusive; D2 potentiator: -7

Results for CCOC(=O)C1(C)CCCCN1C(=O)c1cccnc1 (centres undefined) ?
ClpP mod: 0.4%; D2 potentiator: -1

Results for CC(=O)NC(c1cccc(F)c1)c1nc(-c2cccc(C(F)(F)F)c2)cs1 (centres undefined) ?
ClpP mod: -2.1%; D2 potentiator: -8

What do the screens show for `COc1cc(OC)cc(-c2noc(-c3csc([C@H]4C[C@H](O)[C@@H](CO)O4)n3)n2)c1`?
ClpP mod: -3.5%; D2 potentiator: -2

How did Cc1ccc(-c2nc3c4ccccc4ccn3c2Cc2ccsc2)cc1 do in these assays?
ClpP mod: inconclusive; D2 potentiator: -11

How did CCN(CC)CCN1CCN(c2cncc(-c3cccc(N)c3)n2)CC1 do in these assays?
ClpP mod: -5.3%; D2 potentiator: -11

What do the screens show for `CC1CC(C)CN(C(CCc2ccccc2)C(=O)NC2CCCCC2)C1` (centres undefined)?
ClpP mod: 1.1%; D2 potentiator: -9

Results for CCCS(=O)(=O)NC(=O)C1(C)CCN(C(=O)Cc2ccc3ccccc3c2)C1 (centres undefined) ?
ClpP mod: -2.6%; D2 potentiator: -3

What do the screens show for `COCCNC(=O)C1(C)CCCN(CC(=O)c2ccc(OC)cc2)C1` (centres undefined)?
ClpP mod: -0.4%; D2 potentiator: -7

What do the screens show for `CCOC(=O)C1CCCN(C(=O)c2cc(OC)ccc2Br)CC1` (centres undefined)?
ClpP mod: -0.3%; D2 potentiator: -2

How did CCc1ccc2c(c1)NC(=O)C2(C)Cc1cccc(F)c1 (centres undefined) do in these assays?
ClpP mod: -1.0%; D2 potentiator: -7

What do the screens show for `COc1ccc(CNC(=O)Nc2ccc3c(c2)c(=O)n(C)n3Cc2cc(C)cc(C)c2)cc1`?
ClpP mod: 4.8%; D2 potentiator: 7

What do the screens show for `Nc1cc(N)cc(C(=O)c2ccccc2)c1`?
ClpP mod: -0.7%; D2 potentiator: 14

How did CC(=O)Nc1cc(-c2ccc(C(=O)N3CCOCC3)cc2)cn2c(-c3ccc(F)c(Cl)c3)cnc12 do in these assays?
ClpP mod: inconclusive; D2 potentiator: -5

How did Cc1ccc(S(=O)(=O)N2C[C@H]3[C@H]4C(=O)N(c5ccccc5)C(=O)[C@H]4CC(=O)[C@H]3[C@@H]2c2cccc3ccccc23)cc1 do in these assays?
ClpP mod: 0.8%; D2 potentiator: -1

What do the screens show for `O=C(NCC(F)(F)F)c1ccc2sc([C@@H]3O[C@H](CO)[C@H](O)[C@H](O)[C@H]3O)nc2c1`?
ClpP mod: 1.6%; D2 potentiator: -18

What do the screens show for `CC1(C(=O)NS(=O)(=O)c2cccc(OC(F)F)c2)CCN1C(=O)c1ccco1` (centres undefined)?
ClpP mod: -0.5%; D2 potentiator: -7

How did CC1(C(=O)NCc2ccncc2)Cc2c(-c3cccc(C(F)(F)F)c3)ccnc2O1 (centres undefined) do in these assays?
ClpP mod: -7.1%; D2 potentiator: -10

How did CCNC(=O)C1CCCN(C(=O)C(c2ccccc2)c2ccccc2)CC1 (centres undefined) do in these assays?
ClpP mod: -1.0%; D2 potentiator: -2

Results for Cc1cnc(C(=O)N(CCCn2ccnc2)C2C(=O)Nc3ccccc3N=C2c2ccccc2)cn1 (centres undefined) ?
ClpP mod: -1.1%; D2 potentiator: -3

How did Nc1ncnc2c1ncn2[C@@H]1O[C@H](C(=O)NCc2ccc3c(c2)OCO3)[C@@H](O)[C@H]1O do in these assays?
ClpP mod: -0.6%; D2 potentiator: 0

How did CCOC(=O)C1(C)CCCCN1C(=O)c1ccccc1OC (centres undefined) do in these assays?
ClpP mod: -3.0%; D2 potentiator: -4

Results for O=C(NC(c1ccc(Cl)cc1)c1cccnc1)C1CCN(CCOc2ccc(Cl)cc2Cl)CC1 (centres undefined) ?
ClpP mod: 0.3%; D2 potentiator: -12

How did Cc1ccc(S(=O)(=O)NC(=O)C2(C)CCN2C(=O)Cc2ccc(-c3ccccc3)cc2)cc1 (centres undefined) do in these assays?
ClpP mod: 2.0%; D2 potentiator: -6

What do the screens show for `CCc1nc2ccc(C(=O)NCCN3CCOCC3)cn2c1N(C)Cc1ccc(OC)cc1`?
ClpP mod: -1.6%; D2 potentiator: -20

What do the screens show for `Cn1nc(C(C)(C)C)cc1N1C(=O)CCC1(C)C(=O)Nc1ccc2ccccc2c1` (centres undefined)?
ClpP mod: -0.6%; D2 potentiator: 0

How did O=C(NCc1cccs1)c1csc(COCCO)n1 do in these assays?
ClpP mod: 0.9%; D2 potentiator: -16

How did CNc1cncc(-c2cccc(NS(C)(=O)=O)c2)n1 do in these assays?
ClpP mod: 4.1%; D2 potentiator: -15

How did CCc1nc2ccc(C(=O)N(C)CCCN(C)C)cn2c1N(C)Cc1cc2ccccc2s1 do in these assays?
ClpP mod: 1.4%; D2 potentiator: -15

Results for O=C(O)c1cccc(-c2csc(C(O)c3ccc(F)c(F)c3)n2)c1 (centres undefined) ?
ClpP mod: -1.4%; D2 potentiator: -1

What do the screens show for `CC(=O)c1cccc(NC(=O)C2Cc3c(-c4ccccc4)ccnc3O2)c1` (centres undefined)?
ClpP mod: 0.2%; D2 potentiator: -8

Results for CC1(C(=O)NS(=O)(=O)C2CC2)CCCN(C(=O)C2(c3ccc(Cl)cc3)CCCC2)C1 (centres undefined) ?
ClpP mod: 2.4%; D2 potentiator: -4

Results for CC(C)c1cccc(-c2csc(C(C)(O)c3ccncc3)n2)c1 (centres undefined) ?
ClpP mod: -2.8%; D2 potentiator: -7

How did CCCN(C)C[C@@H]1OCCCC[C@@H](C)Oc2ccc(NC(=O)c3ccccc3)cc2C(=O)N([C@H](C)CO)C[C@@H]1C do in these assays?
ClpP mod: -8.7%; D2 potentiator: -11

How did CCc1nc2c(OCc3ccc(OC)cc3)cccn2c1N(C)C(=O)c1ccc(OC)cc1 do in these assays?
ClpP mod: -2.1%; D2 potentiator: -13

What do the screens show for `CC1(C(=O)Nc2cccc3cccnc23)CCN1Cc1cccc2c1OCO2` (centres undefined)?
ClpP mod: 32µM*; D2 potentiator: 7

How did O=C(NCc1cccnc1)c1cc(C2CCCN(S(=O)(=O)c3cccc4cccnc34)C2)on1 (centres undefined) do in these assays?
ClpP mod: 0.3%; D2 potentiator: -2

How did CC1(Cc2ccccc2Cl)C(=O)Nc2c(Cl)cccc21 (centres undefined) do in these assays?
ClpP mod: -1.1%; D2 potentiator: -18

What do the screens show for `CCCC(=O)N1CCC1(C)C(=O)NS(=O)(=O)c1ccc(C(C)(C)C)cc1` (centres undefined)?
ClpP mod: 0.5%; D2 potentiator: -8

What do the screens show for `CCCS(=O)(=O)NC(=O)C1(C)CCCN(C(=O)c2ccc(C(F)(F)F)cc2)C1` (centres undefined)?
ClpP mod: 1.6%; D2 potentiator: 0

How did CCOC(=O)N(C)c1c(CC)nc2c(OCc3ccccc3C(=O)OC)cccn12 do in these assays?
ClpP mod: -2.5%; D2 potentiator: -12

How did COCCNC(=O)C1CCCN(C(=O)c2ccc(SC(F)(F)F)cc2)CC1 (centres undefined) do in these assays?
ClpP mod: -0.1%; D2 potentiator: -13

What do the screens show for `COc1cc(CNc2ncnc3c2ncn3[C@H]2CN(Cc3ccc(F)cc3)C[C@@H](CO)O2)cc(OC)c1OC`?
ClpP mod: 1.1%; D2 potentiator: 4

Results for CC1(C(=O)NS(=O)(=O)c2cccs2)CCN1C(=O)C1CCCCC1 (centres undefined) ?
ClpP mod: -0.7%; D2 potentiator: -5

Results for Cc1cccc(C(O)c2ncc(-c3ccccc3Cl)[nH]2)c1C (centres undefined) ?
ClpP mod: -1.5%; D2 potentiator: -9

What do the screens show for `COc1cccc(C(C)(O)c2nc(-c3cnc4ccccc4c3)cs2)c1` (centres undefined)?
ClpP mod: -27%; D2 potentiator: 2

How did COc1ccccc1-c1cncc(NC(C)=O)n1 do in these assays?
ClpP mod: -17%; D2 potentiator: -12

5 entries drawn at random from those above, as already listed:
What do the screens show for `CCCS(=O)(=O)NC(=O)C1(C)CCCN(C(=O)c2ccc(C(F)(F)F)cc2)C1` (centres undefined)?
ClpP mod: 1.6%; D2 potentiator: 0

How did COc1ccccc1-c1cncc(NC(C)=O)n1 do in these assays?
ClpP mod: -17%; D2 potentiator: -12

How did CCOC(=O)N(C)c1c(CC)nc2c(OCc3ccccc3C(=O)OC)cccn12 do in these assays?
ClpP mod: -2.5%; D2 potentiator: -12

Results for Cc1cccc(C(O)c2ncc(-c3ccccc3Cl)[nH]2)c1C (centres undefined) ?
ClpP mod: -1.5%; D2 potentiator: -9

What do the screens show for `CC1(C(=O)Nc2cccc3cccnc23)CCN1Cc1cccc2c1OCO2` (centres undefined)?
ClpP mod: 32µM*; D2 potentiator: 7
